# Vaccinia mCherry = qHTS for Stage-Specific Inhibitors of Vaccinia Orthopoxvirus: mCherry Reporter Primary qHTS. actives 0.63% (n = 310,000). Potency, µM (top dose mostly 36.5 µM), inactives show at the top dose activity change, negative = inhibition, most hits filed as inhibitors. Vaccinia virus mCherry reporter infection, fluorescence; about a quarter of the inactives have no number; active = well fitted inhibition curve with a large enough effect; inconclusive = small, poorly fitted or top-dose-only effect; inactive = no such curve, though single readings can be large or run the other way; tested in A549 cells; further: nearly all actives have a fitted effect of over 35% in size; inactives centre near -10
# VACV Venus inh = qHTS for Stage-Specific Inhibitors of Vaccinia Orthopoxvirus: Venus Reporter Primary qHTS. Vaccinia virus Venus reporter expression, fluorescence. actives 0.46% (n = 330,000). Potency, µM (doses to about 36.5 µM), without a hit: at the highest dose activity change, negative = inhibition, actives largely listed as inhibitors; active means well fitted inhibition curve with a large enough effect; inconclusive means small, poorly fitted or top-dose-only effect; inactive means no such curve, though single readings can be large or run the other way; tested in A549 cells; further: nearly all actives have a fitted effect of over 30% in size; inactives centre near -10
# An asterisk follows results filed as active; i = inactive; ? = inconclusive; . = not tested or not shown; & = joins results of further samples; ! = repeats disagree; [ ] = another dose, or the depositor's remark. On the % scale 0 is the no-effect control and ±100 the full control effect; potency means the concentration at half of the fitted maximal effect. Hits appear at their usual frequency; 0.88% or so of the library scored in one or more.
# Every second line gives: Vaccinia mCherry | VACV Venus inh
C=C(C)[C@@]12OC3(c4ccccc4)O[C@@H]1C1[C@@H]4O[C@]4(CO)[C@@H](O)[C@]4(O)C(=O)C(C)=C[C@H]4[C@@]1(O3)[C@H](C)[C@H]2OC(=O)/C=C/C=C/c1ccccc1 (some centres undefined)
 : 10% | ?
Brc1cc2c(cc1COc1ccc(-c3nn[nH]n3)cc1)OCO2
 : . | -39%
Cc1ccc(NC(=O)COC(=O)Cn2nc(-c3ccc(F)cc3)oc2=O)cc1C
 : -1% | -9%
CC(C)C(=O)NNS(=O)(=O)c1ccccc1
 : i | -1%
COCCCNC(=S)N(Cc1ccccc1)Cc1nc2ccccc2c(=O)[nH]1
 : -13% | -7%
CCOc1ccc(CNC(=O)Cn2cc3c(n2)-c2c(oc(C(=O)N4CCOCC4)c2C)CC3)cc1
 : -2% | -22%
Cc1ccc(S(=O)(=O)c2c(O)cc(C)c(NS(=O)(=O)c3ccc(Cl)cc3)c2C)cc1
 : 3% | 2%
Cn1c(=O)c2c(nc(NCCCCO)n2Cc2ccccc2Cl)n(C)c1=O
 : -5% | 9%
COCCCNC(=O)CN1C(=O)COc2ccc(S(=O)(=O)N3CCCCCC3)cc21
 : -7% | 5%
COc1ccc(F)cc1S(=O)(=O)Nc1ccc2c(c1)OCCO2
 : -17% | -6%
CCCCc1cc(=O)oc2cc(OCc3cc(OC)c(OC)c(OC)c3)c(Cl)cc12
 : -12% | -7%
Cc1cc(C)nc(SCc2cc(=O)c(OC(=O)c3cccc([N+](=O)[O-])c3)co2)n1
 : i | -21%
CN(C)S(=O)(=O)c1ccc(C(=O)Nc2ccc(CCC(=O)N3CCCC3)cc2)cc1
 : 18% | -20%
CCCCCCC(C)n1[nH]c(=O)c2c(C)cc(C)nc21 (centres undefined)
 : -11% | -5%
Cc1ccc(NS(=O)(=O)c2ccc(NC(=O)N3CCCC3)cc2)cc1C
 : -1% | 0%
Cn1c2c(c(=O)n(C)c1=O)C(CC(=O)Nc1ccccc1F)C(=O)N2 (centres undefined)
 : -8% | -12%
N#C/C(=N\Nc1ccc(S(=O)(=O)N2CCCCCC2)cc1)C(N)=S
 : -16% | -19%
COC(=O)C1=C(C(=O)OC)C2C=CC1C1C(OC(C)=O)C(OC(C)=O)C21 (centres undefined)
 : -14% | 3%
CCCCOc1ccc(C(=O)O)cc1
 : . | -13%
CCCc1ccc2oc(C(=O)NCCc3nc(C(=O)OCC)cs3)c(C)c2c1
 : -19% | -23%
CCOC(=O)c1c(NC(=S)NNS(=O)(=O)c2ccc(Br)cc2)sc2c1CCCCC2
 : -11% | -5%
COc1ccc(-n2c(=O)/c(=C\c3cccs3)s/c2=C(/C#N)C(=O)N2CCN(C)CC2)cc1
 : 0% | -14%
Nc1ccc2c(c1)Cc1cc(N)c(Br)cc1-2
 : i | 4%
Cc1ccc(-n2c(=O)[nH]cc(C(=O)N3CCc4ccccc43)c2=O)cc1C
 : -7% | -3%
O=C(CSc1nnc(-c2ccccc2)c(-c2ccccc2)n1)NC1CCCCC1
 : -10% | -14%
O=C(NCc1ccco1)C(=O)NCC1OCCN1S(=O)(=O)c1ccccc1 (centres undefined)
 : i | -4%
Cc1ccc(NC(=O)c2ncn(CCCN[C@H](C)c3cccc4ccccc34)n2)cc1C
 : -17% | -24%
COc1ccc(C(=O)Nc2ccc(N3CCN(C)CC3)cc2)cc1OC
 : -26% | -13%
C/C(N)=C(/C#N)C(=O)COC(=O)CC12CC3CC(CC(C3)C1)C2
 : -10% | -24%
COc1cc(NC(=O)c2cc(-c3cc(F)ccc3OC(C)C)n[nH]2)cc(OC)c1OC
 : 7% | -14%

# Four consecutive entries already listed:
# Every second line gives: Vaccinia mCherry | VACV Venus inh
Cc1ccc(NS(=O)(=O)c2ccc(NC(=O)N3CCCC3)cc2)cc1C
 : -1% | 0%
Cn1c2c(c(=O)n(C)c1=O)C(CC(=O)Nc1ccccc1F)C(=O)N2 (centres undefined)
 : -8% | -12%
N#C/C(=N\Nc1ccc(S(=O)(=O)N2CCCCCC2)cc1)C(N)=S
 : -16% | -19%
COC(=O)C1=C(C(=O)OC)C2C=CC1C1C(OC(C)=O)C(OC(C)=O)C21 (centres undefined)
 : -14% | 3%

# Going on with the list:
# Every second line gives: Vaccinia mCherry | VACV Venus inh
CC1(c2nnc(-c3cccc(Cl)c3)o2)CC(c2ccccc2F)=NO1 (centres undefined)
 : i | -17%
O=C(CSc1nc(=O)n2ccccc2n1)NCCc1ccccc1
 : -11% | -8%
Cc1ccc2nc(CC(O)(c3ccccc3)c3ccccc3)ccc2c1
 : -2% | -10%
CC(OC(=O)c1cc(Br)ccc1O)C(=O)NC1(C#N)CCCCC1 (centres undefined)
 : i | -19%
CN(C)c1ccc(-c2ccnc3c2CC(C)(C(=O)Nc2ccc(F)c(Cl)c2)O3)cc1 (centres undefined)
 : -22% | -8%
COc1ccc(OC)c(NC(=O)Cn2c(=O)cc(C)c3c(C)nn(-c4cccc(Cl)c4C)c32)c1
 : ? | ?
O=C(CSc1ccc(-c2ccc(Br)cc2)nn1)NCC1CCCO1 (centres undefined)
 : -10% | -14%
COc1ccc(OC)c(NC(=O)c2c(NCc3cccs3)sc3c2CCCCC3)c1
 : -16% | -3%
COc1cccc(N2CC(NC(=O)C3CCCC3)CC2=O)c1 (centres undefined)
 : -9%[7.34 µM] | -10%[7.34 µM]
Cc1ccc(C(=O)c2c3ccc(C(F)(F)F)cc3[n+]([O-])n2CCC(N)=O)cc1
 : 0% | -13%
CC(=O)Oc1oc(-c2ccccc2)nc1C=Nc1ccc(N(C)C)cc1
 : -11% | -2%
COc1ccc(CC(NC(C)=O)C(=O)NC2CCN(S(=O)(=O)c3cccc4ccccc34)CC2)cc1OC (centres undefined)
 : -9% | -22%
Cc1nn(C)cc1C(=O)Nc1ccccc1Br
 : -16% | -8%
CCOC(=O)c1cc(C(C)=O)c(=O)n(C)c1N
 : -12% | -3%
CSCCC(NC(=O)C1CCCCC1)C(=O)Nc1ccc(F)c(Cl)c1 (centres undefined)
 : -15% | -14%
C=CCc1ccc(OC)cc1
 : 2.2µM*! | 4µM*!
Cc1ccc(NC(=O)c2cccc(S(=O)(=O)N3CCc4ccccc4C3)c2)nc1
 : -3% | -13%
COc1cccc(-c2cc(C(=O)NCCc3ccc(OC)c(OC)c3)no2)c1
 : -11% | -10%
O=C(N/N=C/c1cccnc1)c1ccc(NC(=O)C(c2ccccc2)c2ccccc2)cc1
 : 0% | -15%
Cc1cccc(Nc2nc(N)nc(CSc3nccn3C)n2)c1
 : -26% | -16%
Cn1ccc2ccc(C3=CC(=O)C[C@H](c4ccc(F)cc4)C3)cc21
 : i | -2%
COc1ccc([C@H]2CC(=O)C=C(c3ccc4[nH]ccc4c3)C2)cc1OC
 : ? | ?
CCOC(=O)C1CCN(C(=O)CCc2nc3sc4c(c3c(=O)[nH]2)CCCC4)CC1
 : i | -4%
c1ccc2c(c1)nc1n2CCN1CCN1CCCC1
 : -12% | -5%
COC(=O)CCC(=O)OC1(C)C(=O)C2=CN(C3CC3)C(c3ccc(OC)cc3)=CC2=C(Br)C1=O (centres undefined)
 : -6% | -4%
Cc1ccc(S(=O)(=O)NCc2cccnc2)c(C)c1
 : -18% | -1%
Cc1ccc(-c2nc(CN3CCCCC3)cc(CN3CCCCC3)c2O)cc1
 : 3% | 5%
CC(=O)N(CC(=O)N(CC(=O)O)c1ccc(Cl)cc1)c1ccc(Cl)cc1
 : i | -2%
Cc1nc(C(F)(F)F)ccc1C(=O)N1CCCCC1
 : i | -7%
COc1ccc2c(c1)C(=O)CC(O)(C(F)F)O2 (centres undefined)
 : -19% | -8%
N#C/C(=C\c1ccc(-c2cccc(Cl)c2)o1)C(=O)Nc1cccc(C(F)(F)F)c1
 : -21% | -22%
COc1ccc(NC(=O)CCNS(=O)(=O)c2cccc3nonc23)cc1Cl
 : -13% | 1%
O=C(O)C1C=Cc2ccccc2N1C(=O)c1ccccc1 (centres undefined) (tested in a mixture with another compound)
 : i | -7%
CCCNc1ccc(S(=O)(=O)N(C(C)C)C(C)C)cn1
 : -10% | -8%
CC1C(=O)N2CCCc3cc(NC(=O)C(=O)NCCc4ccc(F)cc4)cc1c32 (centres undefined)
 : -19% | -20%
CCCN(CCC)Cc1cc(=O)oc2cc(OC)c(Cl)cc12
 : i | 3%
CCCn1c(SCC#N)nc2c(c1=O)C1(CCCC1)Cc1ccccc1-2
 : ? | -26%
N=c1c(C(=O)NCc2ccc(F)cc2)cc2c(=O)n3ccccc3nc2n1CCCN1CCOCC1
 : -11% | 3%
Cc1ccc(NC(=O)c2ccc3nc[nH]c3c2)nc1
 : i | -5%
Cc1ccc(C(=O)CCC(=O)Nc2ncccc2O)cc1
 : ? | -16%
COc1ccc(Nc2nc(NCc3ccco3)nc(N)c2[N+](=O)[O-])cc1
 : i | -4%
O=C(N/N=C/c1ccco1)c1ccc(Br)o1
 : -11% | -6%
O=c1oc2ccccc2cc1NCc1ccccc1O
 : -22% | -9%
COc1ccc(-c2nc3ccc(Br)cn3c2CC(C)(C)C)cc1OC
 : 47%[activator] | -7%
CCC[n+]1c(/C=C/c2c(OC)cc(OC)cc2OC)ccc2ccccc21
 : 10µM* | 106%[activator]
CSC1=N/C(=C\c2ccc(C)o2)C(=O)S1
 : i | -4%
Cc1c(Cl)ccc(S(=O)(=O)Nc2cccnc2)c1Cl
 : i | -6%
CCc1ccc(NC(=O)CS(=O)CC(=O)N2CCN(c3ccccc3F)CC2)cc1 (centres undefined)
 : -4% | -8%
O=C(Nc1ccccc1N1CCCC1)C1CC(=O)N(Cc2ccccc2)C1 (centres undefined)
 : -10% | -19%
O=C(CSc1ncccc1C(=O)O)c1cccc(C(F)(F)F)c1
 : -6% | -3%
COc1ccc(NC(=O)C2CCCN2C(=O)OCc2ccccc2)cc1 (centres undefined)
 : ? | -15%
COc1ccc(CNC(=O)C(c2cccc(C)c2)N(C(=O)c2csnn2)C2CC2)cc1 (centres undefined)
 : -11% | -8%
CC(C)CCNC(=O)C(c1ccc(O)cc1)N(Cc1ccco1)C(=O)CCC(=O)Nc1nccs1 (centres undefined)
 : i | 0%
CN1CCN(C2=Nc3cc(Cl)ccc3Nc3ccccc32)CC1
 : -3%&-14%&-16% | -16%&-22%&-18%
Cc1ccc(N2CC(c3nc4ccccc4[nH]3)CC2=O)c(C)c1 (centres undefined)
 : -25% | -19%
Cc1noc(C)c1C(=O)OCC(=O)Nc1ncc(Cl)c(C)c1Cl
 : -14% | -7%
COc1ccc(OCCC(=O)NCC23CC4CC(CC(C4)C2)C3)cc1
 : -11% | -4%
O=C(Nc1nnc(S(=O)(=O)N2CCOCC2)s1)c1cccc(Br)c1
 : -9% | -10%
CC1=NC(C(F)(F)F)(C(F)(F)F)C(C#N)=C(C)N1
 : i | -11%
COCCNC(=O)c1ccc(-c2nc(CS(=O)(=O)c3ccccc3)c(C)o2)cc1
 : -11% | 3%

# Quoted at random: 2 entries already listed.
# Every second line gives: Vaccinia mCherry | VACV Venus inh
O=C(N/N=C/c1ccco1)c1ccc(Br)o1
 : -11% | -6%
CCC[n+]1c(/C=C/c2c(OC)cc(OC)cc2OC)ccc2ccccc21
 : 10µM* | 106%[activator]

# Remaining list, next part.
# Every second line gives: Vaccinia mCherry | VACV Venus inh
Cc1cc2nc(CSc3ccccc3)cc(=O)n2[nH]1
 : -4% | 3%
COc1nnc(-c2ccc(N3CCCCC3)c(NC(=O)C3CCCCC3)c2)c2ccccc12
 : -4% | -4%
CC1=CC2=NC(=O)/C(=C\c3cc(C)n(-c4ccccc4F)c3C)C(=N)N2O1
 : i | -10%
COc1ccccc1-c1nn(CCC(=O)Nc2cccc(C(C)=O)c2)c2nc(C)cc(C)c12
 : -28% | -25%
COc1ccc(NC(=O)C(NC(=O)/C=C\c2ccc3c(c2)OCO3)c2ccc(C)cc2)cc1 (centres undefined)
 : -5% | -13%
Cc1ccccc1CSc1nc(C(C)(C)C)cc(=O)[nH]1
 : i | -10%
N/C(=N\NC(=O)Nc1ccccc1)c1ccccn1
 : i[7.34 µM] | -1%[7.34 µM]
COc1ccc(N2CCN(C(=O)Cc3noc4ccc(C)cc34)CC2)cc1
 : -1% | -6%
Cn1cnc2c(oc3ccccc32)c1=O
 : -8%[7.34 µM] | -10%[7.34 µM]
CC12CCC(C/C1=N\N=C1\NC(=O)/C(=C\c3ccc(Cl)cc3)S1)C2(C)C (centres undefined)
 : -11% | -14%
N=c1oc2ccc(Br)cc2cc1C(=O)NCc1ccccc1
 : i | -5%
CCOc1ccccc1Nc1ncnc2c1cnn2-c1ccccc1
 : -5% | -20%
O=C(NCc1ccccn1)C1CCCN(S(=O)(=O)c2cccc3nsnc23)C1 (centres undefined)
 : -14% | -14%
O=C(Nc1nncs1)C(Sc1ccccc1)c1ccccc1 (centres undefined)
 : i | -5%
CN(CC(=O)Nc1cccc(F)c1)C(=O)/C=C/c1ccc2ccccc2n1
 : -8% | -7%
COc1ccc(C(=O)Nc2nc(-c3nnn(-c4cc(OC)ccc4OC)c3C)ns2)cc1
 : -13% | -6%
CC1=C(C(=O)OC(C)(C)C)C(c2ccco2)C(C#N)=C(N)O1 (centres undefined)
 : -14% | -11%
COc1ccc(NC(=S)N2CCCC2)cc1
 : -15% | -23%
O=C(NCC1CCCO1)c1c(O)c2cccc3c2n(c1=O)CCC3 (centres undefined)
 : . | -7%
CC1(C(=O)NCc2cccs2)Cc2c(-c3ccccc3)ccnc2O1 (centres undefined)
 : ? | -27%

# Screening results: PubChem, National Center for Advancing Translational Sciences (NCATS)
